HSD17B inhib = blocks hydroxysteroid 17-beta dehydrogenase activity; Q99714; recombinant HSD17B10, NADH fluorescence kinetic; many of its hits are not listed in these tables; Potency, µM (highest dose often 57.1 µM), for inactives: at the highest dose activity change, negative = inhibition, actives largely listed as inhibitors; 7.6% of 75,000 active; active means well fitted inhibition curve with a large enough effect; inconclusive means small, poorly fitted or top-dose-only effect; inactive means no such curve, though single readings can be large or run the other way;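 further: the protocol describes HADH2 (HSD17B10) and not the HSD17B4 of the title; nearly all actives have a fitted effect of over 70% in size; most hits overshoot -100% by far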
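Enzyme plus compound, 15 min room temperature; substrate mix added (NAD+ 1 mM, beta-hydroxybutyryl-CoA 90 uM final); plates read kinetically for NADH fluorescence. HADH2 was His-tagged, E. coli-derived, 20 nM.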
The depositor's hits bear a star; u = inconclusive; [ ] = another dose, or the depositor's remark. On the % scale 0 is the no-effect control and ±100 the full control effect; potency means the concentration at half of the fitted maximal effect. Some of the compounds tested; rates above refer to the full screens.

SMILES	HSD17B inhib
O=C(CCCC(=O)OCC(F)(F)C(F)F)Nc1nccs1	3.2%
NC1C(O)OC(CO)[C@@H](O)[C@@H]1O[C@H]1O[C@@H](C(=O)O)C(O)C(O)C1O (stereo partly drawn)	7.8%
O=C1C2CC=C(Cl)CC2C(=O)N1CN(Cc1ccco1)CN1C(=O)C2CC=C(Cl)CC2C1=O (stereo not drawn)	u
CC(C)CC(NC(=O)OC(C)(C)C)C(=O)NC(C(=O)N1CCCC1C(N)=O)C(C)C (stereo not drawn)	0.8%
Cc1onc(-c2ccccc2Cl)c1C(=O)OCC(=O)N1CCCc2ccccc21	-12.8%
Cn1c(=O)n(CCc2ccccc2)c(=O)c2c1nc1n2CCCN1c1ccc(F)cc1	3.9%
COc1ccc(C(=O)NCc2nnc(SCC(=O)Nc3cccc(C(F)(F)F)c3)o2)cc1OC	-10.1%
CC(C)N(O)C(=O)NC(C)(C)C	8.1%
CC1CCN(CCNC(=O)C2CCCN(S(=O)(=O)c3cccc4nonc34)C2)CC1 (stereo not drawn)	-1.0%
CN1CCN(C(c2ccc(F)cc2)c2nnnn2Cc2cccs2)CC1 (stereo not drawn)	-4.9%
COc1ccc(S(=O)(=O)N(C)c2ccc(C(=O)N3CCOCC3)cc2)cc1	8.8%
CCN1CCN(C(=O)c2cc3c(=O)oc4ccc(C)cc4c3s2)CC1	-1.5%
C=CCN(CC(=O)NCc1ccc(OC)cc1)C(=O)c1csnn1	-1.2%
Clc1cc(Br)ccc1OCCn1ccnc1	-10.9%
Oc1[nH]c2ccccc2c1/C=N/c1nccs1	-9.5%
N#Cc1ccccc1	3.1%
CSc1cccc(NC(=O)CN(C)S(=O)(=O)c2ccc(C)cc2)c1	3.4%
Cn1c(SCc2ccccn2)nnc1-c1ccncc1	-0.3%
CC1(C)Cc2nc3oc4c(=S)nc[nH]c4c3cc2CO1	u
Cc1cccc(NC(=O)Nc2cccc(C)n2)n1	-0.9%
Cc1nc2cc(-c3cccc(F)c3)nn2c(N2CCOCC2)c1C	4.7%
COc1ccc(NC(=O)c2ccco2)c(OC)c1	-8.3%
CCOc1cccc(-c2nnc3sc(COc4ccc(Cl)cc4)nn23)c1	5.0%
Cc1nc2ccc(S(=O)(=O)NC(C(=O)N3CCCC3)C(C)C)cc2s1 (stereo not drawn)	7.0%
Cc1ccc2nc(NC(=O)c3ccc(Cn4cc(Cl)cn4)o3)sc2c1	31.6µM*
Cc1ccc(F)cc1NC(=O)Cc1nn(C)c(=O)c2ccccc12	6.5%
CN(C)S(=O)(=O)c1ccc(Oc2ccccc2)cc1	3.2%
COc1ccc(-n2nc3ccc(NS(C)(=O)=O)cc3n2)cc1Cl	15.8µM*
COc1ccc(-n2c(=O)c3c4c(sc3n(CC(=O)NCc3ccco3)c2=O)CCC4)c(OC)c1	-6.9%
CCOC(=O)c1c(C)c(C(=O)Nc2cc(OC)ccc2OC)c(C)n1CC	-7.2%
O=C(Nc1cccnc1)c1ccc(CN2CCc3ccccc3C2)cc1	-11.8%
S=C(Nc1ccc2c(c1)Cc1ccccc1-2)Nc1ccc2c(c1)Cc1ccccc1-2	-5.8%[11.4 µM]
O=C(Nc1cccc(-c2cn3cccnc3n2)c1)c1ccco1	31.6µM*
COc1ccc(CNc2oc(COc3ccccc3)nc2C#N)cc1	-5.3%
Cc1c(O)c(=O)ccn1C	2.6%[11.4 µM]
Cc1ccc2c(c1)C1CCCC3C1N2CC(=O)N3Cc1ccccc1 (stereo not drawn)	4.9%
Cc1nn(C)c(C)c1S(=O)(=O)NC1CCCc2ccccc21 (stereo not drawn)	7.1%
CN(CCc1ccccn1)Cc1ccc(Cl)cc1	4.7%
COc1cc2c(cc1OC)C(=O)OC2	2.4%
Cc1ccc(CNc2nc3ccccc3n3nnnc23)cc1	29.8%
Cc1ccc(N(C(=O)CC2NC(=O)NC2=O)C2(C(=O)NC3CCCC3)CCCCC2)cc1 (stereo not drawn)	5.1%
O=C(Nc1cccnc1)c1cc(-c2ccc(Br)cc2)on1	3.9%
Cc1ccc(Nc2nc(C(=O)NCCCN3CCOCC3)cs2)cc1	11.7%
Cc1occc1C(=O)Nc1ccc2ccccc2c1	u
Cc1cc(C)c(C#N)c(N2CCSCC2)n1	25.1µM*

Retrieved by structure from the list above:
SMILES	HSD17B inhib
C=CCN(CC(=O)NCc1ccc(OC)cc1)C(=O)c1csnn1	-1.2%
O=C(CCCC(=O)OCC(F)(F)C(F)F)Nc1nccs1	3.2%

Further entries.
SMILES	HSD17B inhib
N#CCSc1nnc(-c2cccnc2)n1-c1ccccc1	-12.0%
Cc1ccc(C)n1NC(=O)c1ccc(Cl)cc1Cl	-17.4%
Cc1cc(C(C)(C)C)cc(CNC2CCCCC2)c1O	15.7%[11.4 µM]
O=C(OC1CCOC1=O)c1cncc(Br)c1 (stereo not drawn)	7.1%
Cc1sc2ncnc(SCC(=O)N3CCCC3=O)c2c1C	18.1%
COC(=O)[C@@H]1C[C@@H]2CC[C@@H](O)C[C@@H]2N1Cc1ccc(N2CCOCC2)cc1	-19.0%
COc1ccc(N2CC(C)Cn3c2nc2c3c(=O)n(CCc3ccccc3)c(=O)n2C)cc1 (stereo not drawn)	8.0%
COc1ccc(COC(=O)N/N=C2/C[C@@H](O)[C@@H](O)[C@@H]3[C@@H]4C(=O)N(Cc5ccccc5)C(=O)[C@H]4CC[C@H]23)cc1	-1.7%[11.4 µM]
CNc1ccccc1C(=O)OCC(C)=O	u
CC1(C)C2CCC1(C)C(OC(=O)CCn1ccnc1)C2 (stereo not drawn)	0.8%
CCCN(CCO)Cc1ccc(F)c(Br)c1	4.4%
Cn1c(=O)c(-c2cc(F)cc(F)c2)nc2cncnc21	-21.6%
CCOC(=O)c1c(C)c(C(=O)N2CCCCCC2)c(C)n1CC	-0.9%
Cc1cccc(NC(=O)c2oc3c(c2C)C(=O)CC(C)(C)C3)n1	-8.3%
COc1ccc(OCCOC(=O)Nc2ccccc2)cc1	5.6%
COc1ccc(NC2=NC3(CCCCC3)N=C(N)N2)cc1	12.2%
Cn1cccc1C(=O)N1CCC2(CCCN(c3ccccc3)C2)CC1	-16.2%
CC(C)CC(NS(=O)(=O)c1ccc2c(c1)oc(=O)n2C)C(=O)N1CC=C(c2ccccc2)CC1 (stereo not drawn)	3.9%
COc1ccc(C(=O)N2CCN(c3ccc(C)cc3)CC2)cc1OC	-1.2%
COc1ccc(-n2c(=S)[nH]c3cc(C(=O)NCCCN4CCCC4=O)ccc3c2=O)cc1	-1.1%
Cc1ccc(CCNC(=O)CC2Oc3ccc(C)cc3NC2=O)cc1 (stereo not drawn)	-0.9%
COC(=O)C1(C(=O)OC)Sc2ccccc2C1=O	12.6µM*
Cc1nn(-c2ccccc2)c2c1/C(=N/O)CC(C)(C)C2	9.6%
O=C(Cn1nc(C(F)(F)F)c2c1CCCC2)NCc1ccco1	7.6%
Cc1ccc(-n2c(Cc3cccn3C)nnc2SCC(=O)NCc2ccco2)cc1	-7.5%
CCOC(=O)c1ccc(N=CC2=C(O)CC(C)(C)CC2=O)cc1	-25.4%
COc1cccc(-n2c(SCC(=O)N3CCOCC3)nc3c([nH]c4ccccc43)c2=O)c1	0.5%
O=C(Nc1ccccc1NC(=O)c1ccco1)c1ccco1	-1.0%
COCc1cc(=O)n2[nH]c(-c3ccccc3)cc2n1	31.6µM*
O=C(NCc1cccs1)C1CCCN1C(=O)NC1CCCCC1 (stereo not drawn)	2.9%
CCCc1[nH]nc2c1C(c1ccc(OC)c(Cn3nnc4ccccc43)c1)C(C#N)=C(N)O2 (stereo not drawn)	-28.5%
O=S(=O)(c1cccc(S(=O)(=O)N2CCC(N3CCCCC3)CC2)c1)N1CCOCC1	8.0%
FC(F)(F)c1ccccc1-c1ccc2ncnc(NCCN3CCOCC3)c2c1	8.1%
Cc1nc2cc(C(F)(F)F)ccc2n1C1CCN(CC(=O)N2CCOCC2)CC1	5.6%
Brc1ccc(-c2nnc3ccc(N4CCN(c5ccccc5)CC4)nn23)cc1	u
CCCOC(=O)c1sc2nc3c(cc2c1N)C(=O)CCC3	9.0%
OCCOCCn1c2ccccc2c2ccccc21	-29.7%
Cc1[nH]c(=O)[nH]c(=O)c1S(=O)(=O)Nc1ccc(Oc2ccccc2)cc1	18.4%
COCCNC(=O)c1ccc(Cn2c(=S)[nH]c3cc4c(cc3c2=O)OCO4)cc1	-3.8%
C=CCn1c(C)cc(C(=O)CSc2nnc(Cc3ccccc3)o2)c1C	-3.8%
CCN1CCN(c2nc3ccccc3nc2C(C#N)C(=O)OC2CCCCC2)CC1 (stereo not drawn)	4.3%
CC1(c2ccc3c(c2)OCO3)NC(=O)N(CC(=O)Nc2ccc(N3CCOCC3)cc2)C1=O (stereo not drawn)	4.1%
CS(=O)(=O)N1CCCC(C(=O)NCc2ccccn2)C1 (stereo not drawn)	8.1%
COCCn1cnnc1SCC(=O)Nc1ccccc1C(=O)Nc1ccc2c(c1)OCO2	5.5%
CCC(=NC(C)c1ccccc1)c1c(O)n(C)c(=O)n(C)c1=O (stereo not drawn)	-2.3%
FC(F)(F)c1ccccc1-c1cc(N2CCNCC2)ncn1	-7.5%
COc1cccc2c1N1C(=O)c3c(C(=O)O)cccc3C1CC2(C)C (stereo not drawn)	-14.6%
CCOC(=O)C(C)Sc1nnc(Cn2c(=O)sc3ccccc32)n1-c1ccccc1 (stereo not drawn)	-29.7%
Cc1noc(C)c1-c1cncnc1N1CCN(C)CC1	15.9%
O=C(CSc1nccn1-c1ccccc1)Nc1ccc2c(c1)OCO2	-3.5%
CCCCCOC(=O)Nc1nnc(CCC)s1	-0.2%
CC1CCC(NC(=O)Cn2ncc3ccccc32)CC1 (stereo not drawn)	-3.7%
c1ccc2c(N3CCCC3)nc(-c3ccncc3)nc2c1	-0.5%
O=c1cc(N2CCOCC2)[nH]c(=O)n1Cc1ccc(F)cc1	7.3%
C/C=C\C1=C(CO)C(=O)[C@@H]2OC2C1=O (stereo partly drawn)	u
O=C(Cc1ccccc1)Nc1ccc(C(=O)O)cc1	13.3%
CCOC(=O)CN1C(=O)NC(C)(c2ccc(OC(F)F)cc2)C1=O (stereo not drawn)	8.5%
O=S(=O)(NCc1ccccc1Br)c1cccs1	-9.8%
CSc1nc(N2CCOCC2)c2c3c(sc2n1)CCCC3	-18.0%
CN(C(=O)CN(CCO)CC(=O)N(C)C(C)(C)Cc1ccccc1)C(C)(C)Cc1ccccc1	0.8%
Further results follow.
SMILES	HSD17B inhib
Nc1ncnc2c1ncn2C1OC(COP(=O)(O)O)C(O)C1O (stereo not drawn)	6.5%
Cn1c(SCC(=O)c2ccc(F)cc2)nnc1-c1ccccc1N	-5.6%
CCOC(=O)Nc1ccc2c(CN3CCN(S(=O)(=O)c4ccccc4)CC3)cc(=O)oc2c1	u
CCOCCCNC(=O)C1CCN(c2cc(C)nc3c(-c4ccc(OC)c(OC)c4)c(C)nn23)CC1	-8.1%
CCCNC(=O)CSc1nnc(-c2ccco2)n1C	7.3%
CCCS(=O)(=O)N1CCCC(C(=O)N2CCOCC2)C1 (stereo not drawn)	13.5%
O=C1CC(N2CCN(C3CC(=O)N(CCc4ccccc4)C3=O)CC2)C(=O)N1CCc1ccccc1 (stereo not drawn)	5.3%
CCOc1ccc2[nH]c(S(=O)(=O)CC)nc2c1Cl	2.5%
Cc1cccc(OCc2nnc(SCC(=O)N(C(C)C)C(C)C)n2Cc2ccco2)c1C	-22.9%
CCOC(=O)c1sc(NC(=O)CSc2nnnn2-c2ccc(C)c(C)c2)nc1C	-3.5%
COC(=O)c1ccc2c(c1)N(Cc1ccccc1F)C(=O)c1ccccc1S2=O (stereo not drawn)	-2.7%
O=C(O)c1cc(-c2cccnc2)nn1-c1ccccn1	8.3%
CCc1ccc(N2CC(C(=O)NC3=NCCS3)CC2=O)cc1 (stereo not drawn)	5.6%
CCS(=O)(=O)N1CCC(C(=O)NCc2cccnc2)CC1	4.5%
CC(=O)c1cccc(S(=O)(=O)N(Cc2cc3cc4c(cc3[nH]c2=O)OCCO4)CC2CCCO2)c1 (stereo not drawn)	-12.9%
CCOC(=O)N1CC=C2C(C#N)=C(N)C(C#N)(C#N)[C@H](c3ccc(OCC)c(OCC)c3)[C@H]2C1	3.0%
Cc1cc(Oc2ccccc2)nc(SCC(N)=O)n1	-1.1%
O=C(Nc1nccs1)c1cc(S(=O)(=O)N2CCCCC2)ccc1Cl	2.1%
CCn1c(SCc2cccc(C(F)(F)F)c2)nnc1-c1ccco1	-13.3%
CCC(C)NC(=O)c1cc(-c2ccccc2O)on1 (stereo not drawn)	3.0%
Cc1nc(Cl)sc1C(=O)O	13.1%
Cc1nn2c(-c3ccccc3)nnc2c2ccccc12	-26.5%
CCOC(=O)CSc1nnc(CSc2nc3sc4c(c3c(=O)[nH]2)CCC4)n1C	1.0%
CC(C)CCN1CC(C(=O)NC(C)C)CC1=O (stereo not drawn)	1.3%
CCCS(=O)(=O)N1CCCC(C(=O)NCc2ccco2)C1 (stereo not drawn)	-1.8%
N#CCCCN1C(=O)C(O)(CC(=O)c2ccc3c(c2)OCCO3)c2ccccc21 (stereo not drawn)	-26.8%
CN(C)CCn1c(CO)nc2c1c(=O)n(C)c(=O)n2C	4.8%[11.4 µM]

A run of entries of the results above:
SMILES	HSD17B inhib
CCOC(=O)N1CC=C2C(C#N)=C(N)C(C#N)(C#N)[C@H](c3ccc(OCC)c(OCC)c3)[C@H]2C1	3.0%
Cc1cc(Oc2ccccc2)nc(SCC(N)=O)n1	-1.1%
O=C(Nc1nccs1)c1cc(S(=O)(=O)N2CCCCC2)ccc1Cl	2.1%
CCn1c(SCc2cccc(C(F)(F)F)c2)nnc1-c1ccco1	-13.3%
CCC(C)NC(=O)c1cc(-c2ccccc2O)on1 (stereo not drawn)	3.0%
Cc1nc(Cl)sc1C(=O)O	13.1%
Cc1nn2c(-c3ccccc3)nnc2c2ccccc12	-26.5%

Screens deposited in PubChem by National Center for Advancing Translational Sciences (NCATS).
